eIF4H inh – inhibitors of RNA binding by human eIF4H | actives 0.94% (n = 290,000) | eIF4H fluorescence polarization binding assay | Q15056 | inhibition, % at 35 µM;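 active = 50% or more with normal probe brightness, or confirmed in later tests; about a fifth of its hits are not listed in these tables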;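 also: calls also rest on retests at 20 µM and on dose response follow-up; 0% = protein and probe with vehicle and 100% = probe without protein; strong numbers were not always called active; many hits fall short of the cut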
Rce1 inh – blocks yeast Ras-converting enzyme; yeast membranes, quenched prenylated peptide cleavage fluorescence; Q03530; AID 2563; actives 0.27% (n = 290,000); calls only;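 active = fall in fluorescence gain of 50% or more versus controls, with final raw signal at or below 3038400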;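 also: plate controls were neutral control wells for no effect and wells lacking membranes for full effect; tested at 10 µM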
Target sequence (Q03530 whole entry, looked up): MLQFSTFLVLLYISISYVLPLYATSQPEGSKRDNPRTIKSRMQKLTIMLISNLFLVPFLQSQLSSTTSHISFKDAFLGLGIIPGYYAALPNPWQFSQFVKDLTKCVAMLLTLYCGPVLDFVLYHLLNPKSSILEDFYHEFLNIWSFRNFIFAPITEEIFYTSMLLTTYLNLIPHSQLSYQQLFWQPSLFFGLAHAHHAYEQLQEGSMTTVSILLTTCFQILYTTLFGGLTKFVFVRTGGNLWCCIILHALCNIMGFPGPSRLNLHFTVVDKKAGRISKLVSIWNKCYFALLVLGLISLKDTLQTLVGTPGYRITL
CSC inhib – cancer stem cell inhibition; cancer stem cell-like cells viability, luminescence; AID 2717; actives 1.1% (n = 300,000); inhibition, % at 7.5 µM;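 active = mean at 75% or more and at least half the replicates too; tested in HMLE shEcad cells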;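 also: 0% = median of negative and 100% = median of positive control wells; the first replicate is given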
Env fusion inh – inhibitors of HIV Env-mediated cell fusion | HeLa-JRFL Env/CEM21 cell fusion, luciferase | inhibition, % at 12.3 µM | actives 1.1% (n = 360,000) | AID 651610;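 active = mean replicate inhibition score of at least 50 and every replicate individually at or above 50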;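 also: 0% = plate neutral controls and 100% = maraviroc near 300 nM; one replicate is shown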
PABP FP inh – PABP-poly(A) binding inhibition | inhibition, % at 35 µM | PABP-poly(A) RNA binding, fluorescence polarization | actives 1% (n = 290,000);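 active = 50% or more with normal probe brightness, or confirmed in later tests; about a fifth of its hits are not listed in these tables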;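 also: calls also rest on retests at 20 µM and on dose response follow-up; controls were probe without protein and protein plus probe with vehicle; some compounds called inactive have numbers as strong as hits; many hits fall short of the cut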
Target sequence (P11940 whole entry, looked up): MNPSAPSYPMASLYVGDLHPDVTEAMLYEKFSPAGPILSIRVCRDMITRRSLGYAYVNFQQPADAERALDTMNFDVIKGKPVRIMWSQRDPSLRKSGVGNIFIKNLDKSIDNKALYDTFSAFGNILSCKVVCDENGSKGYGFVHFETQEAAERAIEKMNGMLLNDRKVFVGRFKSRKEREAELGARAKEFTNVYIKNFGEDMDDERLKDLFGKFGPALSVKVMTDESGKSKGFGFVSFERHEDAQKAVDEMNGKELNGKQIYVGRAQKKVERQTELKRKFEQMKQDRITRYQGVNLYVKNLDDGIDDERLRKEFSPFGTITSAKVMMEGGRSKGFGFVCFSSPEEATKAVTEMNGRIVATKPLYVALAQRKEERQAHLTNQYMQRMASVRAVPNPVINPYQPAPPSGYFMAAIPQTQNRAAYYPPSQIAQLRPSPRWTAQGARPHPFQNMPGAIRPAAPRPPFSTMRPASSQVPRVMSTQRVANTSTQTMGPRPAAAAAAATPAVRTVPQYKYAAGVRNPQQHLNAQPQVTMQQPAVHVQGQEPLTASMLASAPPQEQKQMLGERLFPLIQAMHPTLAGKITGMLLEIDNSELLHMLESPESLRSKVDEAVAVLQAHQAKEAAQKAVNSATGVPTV
MT1-MMP act inh – inhibitors of human MT1-MMP activation | P50281 | actives 0.061% (n = 360,000) | GFP/RFP ratio change, % at 20 µM | HT1080 RFP-PRO-GFP cells, GFP/RFP ratio fluorescence, overnight; percent of plate control window, DMSO zero;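 active = GFP/RFP ratio change of at least 30% with cell ATP level not reduced by more than half and red fluorescence within 50% of control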; also: strong numbers were not always called active
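Test system: HT1080 cells expressing an RFP-PRO-GFP fluorescent reporter construct / Compound dosing: single-point 20 µM compound, 1% DMSO / Schedule: cells overnight before dosing, compound overnight, 37 °C, 5% CO2 / Evaluation: GFP/RFP fluorescence ratio / Control set: DMSO and RFP-L50D-GFP cell wells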
UUG fidelity – yeast start codon fidelity modulation. S. cerevisiae UUG-firefly luciferase reporter, luminescence/redox ratio. activity score, % at 18.7 µM. actives 0.13% (n = 350,000);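 active = replicate mean at a twofold rise or more, about +100% in these data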;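 also: firefly luciferase made from a UUG start codon reports start codon fidelity; reporter light over untreated wells divided by growth signal over untreated wells; some hits fall short of that in this replicate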
MT1-MMP act inh RFP – second read-out of MT1-MMP act inh, no call of its own (marks repeat the call); RFP signal change, %; measured here: RFP expression control read;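 0 = vehicle wells; hits needed this value within 50% of zero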
An asterisk follows results filed as active. Some of the compounds tested; rates above refer to the full screens.

Cc1cccc(-c2ocnc2C(=O)N2CCN(C(=O)c3cccs3)CC2)c1 was read as eIF4H inh 0, Rce1 inh inactive, CSC inhib 7, Env fusion inh 7, PABP FP inh 9, MT1-MMP act inh -3, UUG fidelity 0 and MT1-MMP act inh RFP 0.
For O=C(C[n+]1ccc(C(=O)NCc2ccccc2)cc1)c1ccc(OC(F)F)cc1 the results were eIF4H inh -1, Rce1 inh inactive, CSC inhib -5, Env fusion inh 1, PABP FP inh 11, MT1-MMP act inh -4 and MT1-MMP act inh RFP -1.
For CC(C)(Cc1ccccc1)/[N+]([O-])=C\c1ccc(C(F)(F)F)cc1 the results were Rce1 inh inactive, CSC inhib -2, Env fusion inh -8, MT1-MMP act inh 3, UUG fidelity -11 and MT1-MMP act inh RFP -3.
For Cc1ccc2c(c1)C1CN(C)CCC1N2S(=O)(=O)c1cccc(C(F)(F)F)c1 (stereo not given) the results were CSC inhib 1, MT1-MMP act inh -1, UUG fidelity -28 and MT1-MMP act inh RFP -1.
COc1ccc(C(=O)N(CCc2ccccc2)Cc2ccccc2)c(OC)n1 was read as eIF4H inh -11, Rce1 inh inactive, CSC inhib 0, Env fusion inh 12, PABP FP inh -4, MT1-MMP act inh -7 and MT1-MMP act inh RFP -7.
For CN(c1nc2ccccc2n2c(C3CC3)nnc12)S(=O)(=O)c1ccccc1 the results were eIF4H inh -7, Rce1 inh inactive, CSC inhib 5, Env fusion inh 9, PABP FP inh 9, MT1-MMP act inh 1, UUG fidelity -15 and MT1-MMP act inh RFP 2.
Screening Cc1ccc(C23CC4CC(CC(CC(=O)N5CCOCC5)(C4)C2)C3)cc1 returned eIF4H inh -1, Rce1 inh inactive, CSC inhib -10, Env fusion inh 15, PABP FP inh -1, MT1-MMP act inh 0, UUG fidelity 8 and MT1-MMP act inh RFP -6.
Cc1csc(NC(C)c2nc3cc(C(F)(F)F)ccc3n2CCOCCO)n1 (stereo not given) was read as Rce1 inh inactive, Env fusion inh 16, MT1-MMP act inh 2, UUG fidelity -19 and MT1-MMP act inh RFP 1.
CCOC(=O)C1CCN(S(=O)(=O)c2ccc(C(C)(C)C)cc2)CC1 was read as eIF4H inh 0, Rce1 inh inactive, CSC inhib 9, Env fusion inh 6, PABP FP inh -4, MT1-MMP act inh -4 and MT1-MMP act inh RFP -13.
For CC1(C)OC2C(O1)[C@@H](CO)O[C@H]2n1cnc2c(N)ncnc21 (stereo not given in full) the results were eIF4H inh 3, Rce1 inh inactive, CSC inhib -4, Env fusion inh -28, PABP FP inh -7, MT1-MMP act inh 0 and MT1-MMP act inh RFP 4.
Nc1nnc(SCc2ccccc2)n1-c1ccccc1 was read as eIF4H inh -5, Rce1 inh inactive, CSC inhib -5, Env fusion inh -7, PABP FP inh -5, MT1-MMP act inh -1, UUG fidelity -3 and MT1-MMP act inh RFP -4.
Cc1cccc(-n2c(O)c(C=NCCCN3CCOCC3)c3ccccc3c2=O)c1 was read as eIF4H inh -2, Rce1 inh inactive, CSC inhib 1, Env fusion inh -11, PABP FP inh 8, MT1-MMP act inh 1, UUG fidelity -11 and MT1-MMP act inh RFP -2.
`CCOC(=O)C(C)Sc1nc(N2CCOCC2)c2c(c1C#N)CC(C)(C)OC2` (stereo not given) gave Rce1 inh inactive, CSC inhib 2, Env fusion inh 5, MT1-MMP act inh -5, UUG fidelity 4 and MT1-MMP act inh RFP -2.
`CCN(C(=O)COC(=O)c1c(-c2ccccc2)noc1C)c1c(N)n(Cc2ccccc2)c(=O)[nH]c1=O` gave eIF4H inh -14, Rce1 inh inactive, Env fusion inh 7, PABP FP inh 4, MT1-MMP act inh 1, UUG fidelity 0 and MT1-MMP act inh RFP 2.
Screening COc1ccccc1NC(=O)c1ccc(CSc2ncccn2)cc1 returned eIF4H inh -13, Rce1 inh inactive, CSC inhib -6 and PABP FP inh -4.
CN(CC(=O)Nc1ccc(F)cc1)CC(=O)N1CCCCCC1 was read as CSC inhib -7, MT1-MMP act inh 4, UUG fidelity -11 and MT1-MMP act inh RFP 2.
For COc1ccc2cc3c(N)c(C(=O)N4CCCC4)sc3nc2c1 the results were eIF4H inh 4, Rce1 inh inactive, CSC inhib -1 and PABP FP inh 28.
Screening O=C(CN1CCN(C(=O)c2ccco2)CC1)Nc1cc(C(F)(F)F)ccc1Cl returned eIF4H inh -11, Rce1 inh inactive, CSC inhib -9, PABP FP inh -4, MT1-MMP act inh 2, UUG fidelity -12 and MT1-MMP act inh RFP -7.
Screening COc1cccc(-c2nc(NC3CCCC3)c3ccccc3n2)c1O returned eIF4H inh -9, Rce1 inh inactive, CSC inhib 61, Env fusion inh 7, PABP FP inh 3, MT1-MMP act inh -5, UUG fidelity -5 and MT1-MMP act inh RFP -7.
COc1ccc([N+](=O)[O-])cc1NC(=O)C1(c2ccc(OC)c(OC)c2)CCOCC1 was read as eIF4H inh -15, Rce1 inh inactive, CSC inhib -7, Env fusion inh 31, PABP FP inh -2, MT1-MMP act inh -1 and MT1-MMP act inh RFP 2.
Screening Cc1ccc(-c2nc(NCCCO)c3ccccc3n2)cc1 returned eIF4H inh -10, Rce1 inh inactive, CSC inhib -18, Env fusion inh -2, PABP FP inh -8, MT1-MMP act inh 2, UUG fidelity -16 and MT1-MMP act inh RFP 0.
`CCCOc1ccc(Oc2ccc(S(=O)(=O)N3CCN(C)CC3)cn2)cc1` gave Rce1 inh inactive, CSC inhib 10, Env fusion inh -9, MT1-MMP act inh 10 and MT1-MMP act inh RFP -8.
`OCCN=C1CCCc2c1[nH]c1ccc(Br)cc21` gave eIF4H inh -11, Rce1 inh inactive, CSC inhib 7, PABP FP inh -13, MT1-MMP act inh -7 and MT1-MMP act inh RFP -3.
Screening COc1ccc(CCNC(=O)c2cc(-c3cc(C)c(C)cc3O)n[nH]2)cc1OC returned eIF4H inh -14, Rce1 inh inactive, CSC inhib -5, Env fusion inh -36, PABP FP inh -6, MT1-MMP act inh 4, UUG fidelity -17 and MT1-MMP act inh RFP 6.
For Oc1ccc(-c2nnc(-c3ccccc3)c(-c3ccccc3)n2)cc1 the results were eIF4H inh 0, Rce1 inh inactive and PABP FP inh 0.
COc1ccc(Cl)cc1-n1c(=S)sc2c(=O)[nH]c(SCC(=O)NCCC(C)C)nc21 was read as eIF4H inh -4, Rce1 inh inactive, Env fusion inh 6, PABP FP inh -5, MT1-MMP act inh -5, UUG fidelity -23 and MT1-MMP act inh RFP -1.
O=C(c1ccccc1)N1N=C(C(F)(F)F)CC1(O)c1ccccc1O (stereo not given) was read as eIF4H inh 8, Rce1 inh inactive, CSC inhib 35, Env fusion inh 58*, PABP FP inh 5, MT1-MMP act inh -3, UUG fidelity -4 and MT1-MMP act inh RFP -7.
`CCCCCCOC(=O)Nc1ccc(S(=O)(=O)Nc2cccc([N+](=O)[O-])c2)cc1` gave eIF4H inh 8, Rce1 inh inactive, CSC inhib 23, Env fusion inh 1, PABP FP inh 6, MT1-MMP act inh -2, UUG fidelity -13 and MT1-MMP act inh RFP -15.
Cc1cc(=O)oc2cc3c(cc12)OCO3 was read as eIF4H inh 18, Rce1 inh inactive, CSC inhib -9, Env fusion inh -36, PABP FP inh 13, MT1-MMP act inh -1, UUG fidelity 3 and MT1-MMP act inh RFP 3.
Screening CC(C)(C)C(=O)N1CCN(S(=O)(=O)c2ccc3c(c2)OCCCO3)CC1 returned Rce1 inh inactive, CSC inhib -8, Env fusion inh 2, MT1-MMP act inh -3, UUG fidelity 3 and MT1-MMP act inh RFP -21.

Overlap with the part before: six entries, followed by the next part.
For Oc1ccc(-c2nnc(-c3ccccc3)c(-c3ccccc3)n2)cc1 the results were eIF4H inh 0, Rce1 inh inactive and PABP FP inh 0.
COc1ccc(Cl)cc1-n1c(=S)sc2c(=O)[nH]c(SCC(=O)NCCC(C)C)nc21 was read as eIF4H inh -4, Rce1 inh inactive, Env fusion inh 6, PABP FP inh -5, MT1-MMP act inh -5, UUG fidelity -23 and MT1-MMP act inh RFP -1.
O=C(c1ccccc1)N1N=C(C(F)(F)F)CC1(O)c1ccccc1O (stereo not given) was read as eIF4H inh 8, Rce1 inh inactive, CSC inhib 35, Env fusion inh 58*, PABP FP inh 5, MT1-MMP act inh -3, UUG fidelity -4 and MT1-MMP act inh RFP -7.
`CCCCCCOC(=O)Nc1ccc(S(=O)(=O)Nc2cccc([N+](=O)[O-])c2)cc1` gave eIF4H inh 8, Rce1 inh inactive, CSC inhib 23, Env fusion inh 1, PABP FP inh 6, MT1-MMP act inh -2, UUG fidelity -13 and MT1-MMP act inh RFP -15.
Cc1cc(=O)oc2cc3c(cc12)OCO3 was read as eIF4H inh 18, Rce1 inh inactive, CSC inhib -9, Env fusion inh -36, PABP FP inh 13, MT1-MMP act inh -1, UUG fidelity 3 and MT1-MMP act inh RFP 3.
Screening CC(C)(C)C(=O)N1CCN(S(=O)(=O)c2ccc3c(c2)OCCCO3)CC1 returned Rce1 inh inactive, CSC inhib -8, Env fusion inh 2, MT1-MMP act inh -3, UUG fidelity 3 and MT1-MMP act inh RFP -21.
CS(=O)(=O)c1nc(-c2cccs2)cc(C(F)(F)F)n1 was read as eIF4H inh -4, Rce1 inh inactive, CSC inhib 100* and PABP FP inh 6.
CN1CCC(=NOc2ccc([N+](=O)[O-])cc2)CC1 was read as eIF4H inh -9, Rce1 inh inactive, CSC inhib -1, Env fusion inh 4, PABP FP inh -2, MT1-MMP act inh 14 and MT1-MMP act inh RFP 51.
For COc1cccc(N2CCN(c3cnc4ccccc4n3)CC2)c1 the results were eIF4H inh 38, Rce1 inh inactive, CSC inhib 6, Env fusion inh -25, PABP FP inh -4, MT1-MMP act inh 0 and MT1-MMP act inh RFP -5.
Cn1c(N)c(C(=O)COC(=O)c2ccc(Br)o2)c(=O)n(C)c1=O was read as eIF4H inh -10, Rce1 inh inactive, CSC inhib -7, PABP FP inh 1, MT1-MMP act inh -2, UUG fidelity 1 and MT1-MMP act inh RFP 2.
Screening CCOCCCn1c(SCC(=O)Nc2ccccc2OC)nc2ccccc2c1=O returned eIF4H inh 14, Rce1 inh inactive, CSC inhib -13, Env fusion inh 17, PABP FP inh 4, MT1-MMP act inh -1, UUG fidelity -12 and MT1-MMP act inh RFP -4.
Cc1cccc(NC(=S)NC2CCCCC2)n1 was read as eIF4H inh -22, Rce1 inh inactive, CSC inhib -17, Env fusion inh 5, PABP FP inh -4, MT1-MMP act inh 1, UUG fidelity -5 and MT1-MMP act inh RFP 3.
Screening Cc1ccccc1OC(C)C(=O)Nc1ccc(S(=O)(=O)Nc2nccs2)cc1 (stereo not given) returned eIF4H inh 0, Rce1 inh inactive, CSC inhib 4, Env fusion inh -3, PABP FP inh 7, MT1-MMP act inh 4, UUG fidelity 4 and MT1-MMP act inh RFP 5.
`CC(C)OCCCNC(=O)[C@H]1N2C(=O)c3ccccc3C2SC1(C)C` (stereo not given in full) gave eIF4H inh -8, Rce1 inh inactive, CSC inhib -12, Env fusion inh 4, PABP FP inh -3, MT1-MMP act inh -1, UUG fidelity -21 and MT1-MMP act inh RFP 0.
Cc1ccccc1NC(=O)C1CCCN1S(=O)(=O)c1cccc2cccnc12 (stereo not given) was read as eIF4H inh 1, Rce1 inh inactive, CSC inhib 0, PABP FP inh -3, MT1-MMP act inh -3, UUG fidelity -4 and MT1-MMP act inh RFP 7.
`CN(CC(=O)Nc1ccc(Cl)c(C(F)(F)F)c1)C(=O)CCc1nc2ccccc2c(=O)[nH]1` gave CSC inhib -5, MT1-MMP act inh 4, UUG fidelity -12 and MT1-MMP act inh RFP 0.
Screening Cn1ccc2c(-c3ccc(F)cc3F)cc3c(c21)C1CCC3C1 (stereo not given) returned Env fusion inh -7, MT1-MMP act inh 14, UUG fidelity -21 and MT1-MMP act inh RFP 9.

High-throughput results deposited in PubChem BioAssay by several laboratories.
